Compound activity (PubChem BioAssay)
Lassa entry inh = inhibitors of Lassa virus binding or cell entry | AID 540256 | actives 1.2% (n = 300,000) | Potency, µM (highest dose often 37.9 µM), inactives show top-dose activity change, negative = inhibition, usual class: inhibitors | Lassa virus pseudotype entry inhibition, cell reporter; control for the full effect not named in the record; active means well fitted inhibition curve with a large enough effect; inconclusive means small, poorly fitted or top-dose-only effect, or effect the other way; inactive means flat fitted curve, though single readings scatter; tested in HEK293 cells; further: on the % scale 0 is the no-effect control and ±100 the full control effect; nearly all actives have a fitted effect of over 50% in size; luciferase read-out
NS1 inh = blocks influenza NS1 protein function. actives 0.4% (n = 270,000). S. cerevisiae slowed by influenza A NS1, growth recovery by OD600. Potency, µM (top dose mostly 46.1 µM), inactives show top-dose activity, positive = more growth; active means well fitted rising curve with a large enough effect; inconclusive means small, poorly fitted or top-dose-only effect; inactive means no such curve, though single readings can be large or run the other way; further: nearly all actives have a fitted effect of over 50% in size
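OD600 was taken as the measure of yeast growth restored by compound in an NS1-expressing S. cerevisiae strain. Cells had been washed out of glucose medium and diluted 1:100 into galactose -URA medium, pH 6.0.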
Cruzain noTriton = cruzain (T. cruzi) inhibition without detergent. Potency, µM, for the others: max response, negative = inhibition, hits mostly inhibitors. purified cruzain, Z-FR-AMC fluorescence, no detergent. actives 2.3% (n = 200,000);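 further: plate controls were enzyme without inhibitor for no effect and buffer without enzyme for full effect; nearly all actives have a fitted effect of over 40% in size; top concentration of the series not given in the record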
Target sequence (P25779 123-467 limits assumed): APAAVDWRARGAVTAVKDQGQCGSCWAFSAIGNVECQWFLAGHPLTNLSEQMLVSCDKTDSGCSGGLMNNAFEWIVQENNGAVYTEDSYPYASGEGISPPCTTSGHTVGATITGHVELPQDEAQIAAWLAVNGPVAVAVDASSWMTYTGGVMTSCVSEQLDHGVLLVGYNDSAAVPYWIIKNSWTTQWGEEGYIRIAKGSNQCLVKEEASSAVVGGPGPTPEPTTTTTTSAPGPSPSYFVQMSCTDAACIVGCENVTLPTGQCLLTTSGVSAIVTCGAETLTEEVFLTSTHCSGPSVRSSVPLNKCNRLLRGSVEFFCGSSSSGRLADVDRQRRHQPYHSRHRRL
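Purified cruzain at 1.5 nM, pre-incubated 15 min with compound at room temperature in 100 mM sodium acetate pH 5.5, 5 mM DTT, 0.00005% Triton X-100. Reaction started with 2 uM Z-FR-AMC; AMC fluorescence increase over 60 s gives rate.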
MARV entry inh = Marburg virus entry inhibition | Marburg virus pseudotyped entry inhibition, cell reporter; control for the full effect not named in the record; about a third of the inactives were read at about 46 µM | Potency, µM (series often up to 37.8 µM), for the others: at the top dose activity change, negative = inhibition, actives largely listed as inhibitors | actives 1.8% (n = 300,000) | AID 540276; active = well fitted inhibition curve with a large enough effect; inconclusive = small, poorly fitted or top-dose-only effect, or effect the other way; inactive = flat fitted curve, though single readings scatter; tested in HEK293 cells; about a fifth of its hits are not listed in these tables; further: on the % scale 0 is the no-effect control and ±100 the full control effect; luciferase read-out
StopGo reporter = lowers the luciferase signal of an FMDV 2A StopGo reporter | human cells with a luciferase reporter of 2A StopGo recoding; control for the full effect not named in the record | Potency, µM (top dose mostly 57.9 µM), without a hit: at the highest dose signal change, negative = less light | actives 1.2% (n = 410,000) | AID 1159524; active = well fitted falling curve with a large enough effect; inconclusive = small, poorly fitted or top-dose-only effect; inactive = no such curve, though single readings can be large or run the other way; tested in HEK293T cells; further: on the % scale 0 is the no-effect control and ±100 the full control effect; nearly all actives have a fitted effect of over 45% in size; luciferase light after 4 h
Cruzain inh Det = blocks cruzain activity in presence of Triton detergent | P25779 | purified cruzain, Z-FR-AMC fluorescence, 0.01% Triton | Potency, µM, inactives show max response, negative = inhibition, hits mostly inhibitors | actives 0.43% (n = 200,000);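 further: plate controls were neutral wells for no effect and buffer without enzyme for full effect; nearly all actives have a fitted effect of over 40% in size; top concentration of the series not given in the record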
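Sodium acetate buffer (100 mM, pH 5.5) containing 5 mM DTT and 0.01% Triton X-100 hosted 1.5 nM cruzain and test compound for 15 min at room temperature. Cleavage of 2 uM Z-FR-AMC was then tracked by fluorescence.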
SARS PLpro yeast = blocks SARS-CoV papain-like protease in a yeast assay | S. cerevisiae expressing SARS-CoV PLpro, growth rescue; control for the full effect not named in the record | Potency, µM (top dose mostly 32.9 µM), for inactives: at the top dose activity, positive = growth rescue | AID 485353 | actives 0.19% (n = 330,000); active means well fitted rising curve with a large enough effect; inconclusive means small, poorly fitted or top-dose-only effect; inactive means no such curve, though single readings can be large or run the other way; further: 0% is about no effect; nearly all actives have a fitted effect of over 55% in size; growth read by luminescence after 48 h
RE007 growth inh = less growth of the S. pombe RE007 Vpr strain. S. pombe RE007 Vpr strain, BacTiter-Glo ATP luminescence, 24 h; control for the full effect not named in the record. Potency, µM (series often up to 92.2 µM), for the others: at the highest dose activity change, negative = less growth. actives 0.21% (n = 360,000); active = well fitted falling curve with a large enough effect; inconclusive = small, poorly fitted or top-dose-only effect; inactive = no such curve, though single readings can be large or run the other way;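 further: on the % scale 0 is the no-effect control and ±100 the full control effect; nearly all actives have a fitted effect of over 50% in size; the assay follows cell death caused by Vpr and the record does not say whether a fall means rescue or toxicity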
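Fission yeast RE007 carrying one integrated HIV-1 vpr copy, seeded at OD 0.01 in PMG+AL medium with 23 nL pinned compound. Grown 24 h at 30 degrees; viability read by BacTiter-Glo luminescence after 5 min.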
Active calls of the source: *; ? = inconclusive; nt = not tested or not shown; [ ] = dose if it differs, or a comment. Unless noted, the call rests on the fitted dose curve; in most records, active means well fitted curve in the direction sought with a large enough effect; inconclusive means small, poorly fitted or top-dose-only effect, or another doubt; inactive means no such curve, though single readings can be large; an effect the other way counts as inactive or inconclusive. Potency means the concentration at half of the fitted maximal effect.

SMILES	Lassa entry inh	NS1 inh	Cruzain noTriton	MARV entry inh	StopGo reporter	Cruzain inh Det	SARS PLpro yeast	RE007 growth inh
O=S(=O)(CCc1nc2ccccc2[nH]1)c1ccc(Br)cc1	5%	6%	-23%	-30%	-12%	-28%	-7%	-20%
CCCCN(CC)C(=O)c1cccc(Cl)c1	5%	-4%	15%	1%	-7%	1.8%	0%	-9%
COc1ccc(-c2csc(/C(C#N)=C/Nc3ccc4c(c3)OCCO4)n2)cc1	nt	-2%	13µM*	3%	-10%	-4.2%	0%	3%
CCOc1ccccc1NC(=O)CN(c1ccc(Cl)cc1)S(C)(=O)=O	-18%	23%	nt	-18%	-2%	nt	1%	-6%
CCOc1cccc(NC(=O)C2CC(=O)N(c3ccc(F)cc3)C2)c1 (configuration not stated)	-1%	-4%	nt	16%	-14%	nt	0%	-2%
CCN1CCN(S(=O)(=O)c2ccc(Cl)c(C(=O)N(C)Cc3cccc(OC)c3)c2)CC1	-7%	nt	nt	-28%	-14%	nt	17%	-6%
CCOC(=O)c1cc2c(ccn2C)n1CC(=O)N1CCCC(C)C1 (configuration not stated)	7%	15%	3%	3%	2%	-4.2%	3%	12%
Cc1ccc2nc(NC(=O)CSc3nc4c(c(=O)n3C)SC(C)C4)sc2c1 (configuration not stated)	-2%	-45%	-22%	?	?	-13%	7%	14%
CCc1ccc(NC(=O)CCNS(=O)(=O)c2cccc3nonc23)cc1	7%	-4%	4%	0%	1%	-6.7%	5%	6%
CCC(C(=O)OCC(=O)Nc1ccc(OC)cc1OC)c1ccccc1 (configuration not stated)	0%	-5%	nt	13%[46.1 µM]	-11%	nt	-3%	-4%
CCOc1ccc(CN2CCN(Cc3c(C)nn(CC)c3C)CC2CCO)cc1 (configuration not stated)	?	-1%	nt	-3%[46.1 µM]	-10%	nt	-1%	-10%
C/C(=N\NC(=O)c1ccccc1C)c1cccc([N+](=O)[O-])c1	-3%	-2%	-14%	-1%	35%[activator]	4.7%	-8%	2%
CCOc1ccc(S(=O)(=O)c2cn(Cc3cc(C)ccc3C)c3ccc(OCC)cc3c2=O)cc1	-12%[46.1 µM]	nt	16µM*	?	22%	-4.4%	nt	nt
O=C1NC(=O)C2(Cc3ccccc3N3CCCC32)C(=O)N1 (configuration not stated)	1%	-2%	0%	1%	11%	1.6%	-2%	2%
CCOC(=O)C1CCCN(C2CC(=O)N(c3ccc(N4C(=O)CC(N5CCCC(C(=O)OCC)C5)C4=O)cc3)C2=O)C1 (configuration not stated)	nt	-3%	nt	nt	6%	nt	1%	1%
Cc1cc(CNC(=O)c2cccnc2Cl)c2ccccc2n1	0%[46.1 µM]	nt	nt	13%[46.1 µM]	-17%	nt	10%	5%
COc1ccc2c(C)cc(SCC(=O)Nc3cc(C(N)=O)cc(C(N)=O)c3)nc2c1	-13%	5%	nt	?	-17%	nt	1%	-11%
CCOCCCN(C)C1CCN(S(=O)(=O)c2csc(C(N)=O)c2)CC1	nt	-5%	nt	nt	-2%	nt	-3%	0%
Cc1c(C)n(Cc2ccccc2)c2ccc(C(=O)NCc3ccc(OC(C)C)cc3)cc12	-4%[46.1 µM]	nt	25µM*	nt	-7%	1.8%	nt	nt
CCn1c(NCc2cccs2)nc2ccccc21	6%	-7%	9%	?	-9%	-4.6%	-2%	-28%
CCn1c(/C=C/c2ccccc2)nc2ccccc2c1=O	nt	-35%	nt	nt	-24%	nt	1%	17%
O=C(NC1CCCC1)C(c1cccnc1)N(C(=O)c1csnn1)c1ccc(F)cc1 (configuration not stated)	24%[46.1 µM]	11%	nt	11%[46.1 µM]	0%	nt	2%	-5%
Cc1ccc(-c2nc(CN3CCN(c4cnccn4)CC3)c(C)o2)o1	2%	4%	nt	4%[46.1 µM]	7%	nt	0%	1%
COc1cc(CC2COC(c3ccc(O)c(OC)c3)C2COC(C)=O)ccc1O (configuration not stated)	nt	3%	nt	nt	-17%	nt	0%	-1%
CCN(CC)CCn1c(SCC(=O)NCc2ccccc2)nc2c(sc3ccccc32)c1=O	?	nt	nt	9%	-13%	nt	-6%	-7%
O=C(NC(=S)NCc1ccc(-c2nc3ccccc3s2)cc1)c1ccco1	-28%	4%	?	?	28%	-2.5%	12%	14%
O=C1Nc2ccccc2OC1CC(=O)N1CCOCC1 (configuration not stated)	nt	6%	-4%	nt	-20%	3.9%	-1%	1%
COC(=O)c1sc(N2C(=O)C(O)=C(C(=O)c3ccc(C)o3)C2c2ccco2)nc1C (configuration not stated)	-1%	-5%	nt	28%	-18%	nt	-2%	7%
CCOC(=O)c1c(C)n(-c2ccc(C)cc2)c2ccc(O)c(CN(C)C)c12	?	0%	nt	?	-17%	nt	0%	4%
CC(C)n1c(-c2ccncc2)n[nH]c1=S	nt	5%	nt	nt	-16%	nt	0%	-7%
CCOc1cc(C(=O)NCCc2ccc(S(N)(=O)=O)cc2)cc(OCC)c1OCC	nt	3%	nt	nt	18%	nt	1%	-5%
O=C(c1ccc(F)cc1)C1CCN(C(=O)c2ccc(F)cc2)CC1	nt	6%	nt	nt	-19%	nt	4%	-6%
CCOc1ccc(NCc2nnc(SCC(=O)Nc3cc(C)on3)n2-c2ccccc2OC)cc1	-23%	-7%	-22%	?	-14%	-2.2%	25%	-10%
NC(=O)c1ccsc1NC(=O)COC(=O)c1cc(Cl)ccc1O	10%	nt	nt	8%[46.1 µM]	-10%	nt	-4%	-18%
COc1ccc(C(=O)Nc2cc(C)nn2-c2ccc(F)cc2)cc1	-20%	3%	nt	-7%[46.1 µM]	6%	nt	0%	3%
S=C(Nc1ccccc1)N1CCOCC1	1%	9%	nt	?	2%	nt	-1%	-10%
Cn1c(NN)nc2ccccc2c1=O	nt	3%	nt	nt	-4%	nt	0%	-13%
CCCn1c(C(C)Nc2nc(-c3ccc(C)cc3)cs2)nc2cc(Cl)c(Cl)cc21 (configuration not stated)	nt	17%	nt	nt	-14%	nt	2%	8%
COc1cccc(C(=O)NC2CCCc3ccccc32)c1 (configuration not stated)	17%	?	nt	-5%	32%[activator]	nt	-7%	-18%
COCCNS(=O)(=O)c1ccc(SC)cc1	-3%	?	-3%	5%	nt	0.3%	-3%	2%
Cc1ccc(-c2c(C(=O)N3CCOCC3)oc(=O)c3ccccc23)cc1	nt	13%	-11%	-2%	7%	1.8%	-3%	3%
Cc1ccc(C)c(-c2[nH]c3c(c2-c2c(-n4cccc4)n(C)c(=O)[nH]c2=O)c(=O)[nH]c(=O)n3C)c1	-4%[46.1 µM]	nt	-2%	-2%[46.1 µM]	-18%	-1.1%	nt	nt
CC(=O)N(c1ccccc1)c1nc(C)cc(C)c1C#N	17%	-6%	-2%	13%[46.1 µM]	7%	-1.1%	12%	1%
CCOc1ccc(N(CC(=O)NN=C2CCN(C)CC2)S(=O)(=O)c2ccc(Br)cc2)cc1	-14%	?	nt	-4%	-12%	nt	0%	5%
CC1(C)Cc2c(sc3[nH]c(=S)n(Cc4ccccc4)c(=O)c23)CO1	6.5µM*	13%	-5%	?	nt	-4.3%	1%	7%
COC(=O)c1c(NC(=O)c2ccccc2F)sc(C(=O)N2CCOCC2)c1C	-2%[46.1 µM]	5%	nt	-2%[46.1 µM]	47%[activator]	nt	3%	-13%
CN(C)Cc1c(C(=O)N/N=C/c2cccc(OCc3c(F)cccc3Cl)c2)nnn1-c1nonc1N	nt	-7%	nt	nt	?	nt	12%	-5%
COc1cccc(C(=O)Nc2cccc3cccnc23)c1OC	nt	-10%	nt	nt	51%[activator]	nt	1%	16%
CNC(=O)c1ccc(-c2sc3nc(N4CCOCC4)c4c(c3c2N)CC(C)(C)OC4)o1	?	21%	?	?	-14%	-20%	3%	22%
COCCCNC(=O)C1CCN(Cc2cc3ccccc3n2Cc2cccc(C)c2)CC1	-21%[46.1 µM]	nt	1%	nt	-21%	0.0%	nt	nt
CC(COc1ccccc1)N1CCC(CO)(CCc2ccccc2)CC1 (configuration not stated)	-9%	3%	nt	?	-17%	nt	0%	1%
COc1ccc(CN2CCC(CO)(Cc3ccccc3)CC2)cc1Cn1cccn1	nt	5%	nt	nt	-18%	nt	1%	4%
O=c1c2[nH]c3ccc(F)cc3c2ncn1CCCN1CCOCC1	9%	3%	-2%	-6%	1%	1.3%	5%	8%
Cc1ccc(C)c(NC(=O)CCn2nc(C)cc2C)c1	10%	5%	2%	0%	-22%	1.5%	17%	6%
CC(Oc1ccccc1)C(=O)Nc1cc(Cl)ccc1-n1cncn1 (configuration not stated)	5%	nt	nt	-2%	-10%	nt	1%	0%
COc1ccc(OC)c(N(CC(=O)NCCSCc2ccco2)S(=O)(=O)c2ccccc2)c1	?	-1%	nt	-30%[46.1 µM]	-22%	nt	0%	-1%
COc1ccc(C2C(C(=O)Nc3ccccc3)=C(C)Nc3nc(SCC(=O)c4ccc(C)cc4)nn32)cc1 (configuration not stated)	13%[46.1 µM]	nt	6%	nt	13%	1.0%	nt	nt
CN(CCN1CCOCC1)Cc1nc(-c2ccc3c(c2)OCO3)no1	nt	3%	nt	nt	-9%	nt	1%	11%
COC(=O)c1ccc(C(=O)O)nc1	0%	-5%	nt	-2%	-5%	nt	1%	2%
CCOC(=O)N1CCC(NC(=O)c2cc3c(C)nc4ccccc4c3o2)CC1	nt	-113%	26%	nt	-27%	-4.6%	-10%	0%

(listing goes on)
SMILES	Lassa entry inh	NS1 inh	Cruzain noTriton	MARV entry inh	StopGo reporter	Cruzain inh Det	SARS PLpro yeast	RE007 growth inh
Cc1ccc(C(=O)NCC(=O)NC2CCCC2)cc1	0%	2%	nt	5%	18%	nt	-1%	-8%
CN(CC(=O)NCCCN1CCOCC1)S(=O)(=O)c1ccc(Cl)cc1	17%	nt	nt	0%	-4%	nt	3%	21%
O=C(Oc1cccc(NC2=NS(=O)(=O)c3ccccc32)c1)c1cccnc1	3%[46.1 µM]	3%	nt	18%[46.1 µM]	-9%	nt	0%	25%
O=c1[nH]c2ccc(F)cc2[nH]c1=O	19%[46.1 µM]	6%	nt	?	-11%	nt	-1%	0%
COCCn1c(-c2cccs2)nc2nc3ccccc3nc21	nt	-6%	nt	nt	27%	nt	-1%	-7%
